Source: PubChem BioAssay (several laboratories)
rRNA inh HTS – reduced GFP signal of wild-type E. coli, primary screen, bacterial rRNA inhibitor project, GFP/RFP fluorescence, OD600, single point; E. coli WT GFP vs humanized-ribosome RFP mutants, 24 h; hits give low values; DMSO median 0, no signal -100; GFP signal change (wild-type ribosome), % (concentration not given with the values); hit rate 1.6% among 350,000; AID 720706, 2013;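 active = significant combined selectivity score with lowered wild-type GFP, culture density cut under 30%, mutant RFP and density less affected; inactive = any of these conditions unmet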; also: one replicate is shown; some compounds called inactive have numbers as strong as hits
LANA-H2A inh – blockers of LANA interaction with H2A/H2B – biochemical, FP readout, HTS, primary screen; Protein LANA1 (Human herpesvirus 8 type P (isolate GK18)), Q9QR71; cell-free LANA-H2A/H2B peptide, fluorescence polarization; inhibition, % (test concentration not listed); hit rate 0.6% among 320,000; AID 2629, 2010; in the data active = inhibition mostly above about 10%, no sharp cut-off; inactive = mostly below about 6.7%;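 also: stock transfer was 7.5 nL into about 10 µL; 0% = median of vehicle wells and 100% = median of positive control wells; one replicate is shown; the record names a cut of 25% in any replicate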
Target sequence (Q9QR71 whole entry, looked up): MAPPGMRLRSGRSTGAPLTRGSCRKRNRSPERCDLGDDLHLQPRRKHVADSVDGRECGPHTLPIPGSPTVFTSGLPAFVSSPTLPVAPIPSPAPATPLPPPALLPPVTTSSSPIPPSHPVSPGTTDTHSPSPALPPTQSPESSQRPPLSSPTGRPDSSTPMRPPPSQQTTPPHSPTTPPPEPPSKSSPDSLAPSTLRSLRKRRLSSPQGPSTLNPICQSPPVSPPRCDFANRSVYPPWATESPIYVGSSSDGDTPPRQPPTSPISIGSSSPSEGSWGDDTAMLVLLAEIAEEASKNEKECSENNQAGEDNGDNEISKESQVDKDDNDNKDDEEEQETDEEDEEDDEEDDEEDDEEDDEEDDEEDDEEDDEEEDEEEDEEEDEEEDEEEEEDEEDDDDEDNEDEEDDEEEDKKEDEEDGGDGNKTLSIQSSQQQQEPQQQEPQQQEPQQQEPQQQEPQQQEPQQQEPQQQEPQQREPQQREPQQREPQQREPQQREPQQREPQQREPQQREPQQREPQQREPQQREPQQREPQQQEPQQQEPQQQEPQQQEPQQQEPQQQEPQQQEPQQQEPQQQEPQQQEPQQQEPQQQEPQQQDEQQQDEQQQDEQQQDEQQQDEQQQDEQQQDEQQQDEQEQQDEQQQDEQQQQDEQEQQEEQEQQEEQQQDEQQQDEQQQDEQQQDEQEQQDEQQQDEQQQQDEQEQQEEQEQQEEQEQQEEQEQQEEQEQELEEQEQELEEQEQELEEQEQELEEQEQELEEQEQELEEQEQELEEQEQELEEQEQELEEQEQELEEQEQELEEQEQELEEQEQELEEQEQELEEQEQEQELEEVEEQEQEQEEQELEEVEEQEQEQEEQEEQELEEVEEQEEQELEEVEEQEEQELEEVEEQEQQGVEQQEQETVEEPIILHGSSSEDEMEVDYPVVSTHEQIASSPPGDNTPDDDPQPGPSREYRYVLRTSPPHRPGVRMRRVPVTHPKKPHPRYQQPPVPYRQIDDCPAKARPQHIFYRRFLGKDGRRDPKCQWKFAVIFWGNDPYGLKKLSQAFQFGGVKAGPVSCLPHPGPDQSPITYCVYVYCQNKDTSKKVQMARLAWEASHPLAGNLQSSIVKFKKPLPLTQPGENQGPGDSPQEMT
Bfl-1 A1 inh – caspase 3/7 activation in MEF A1-2A-BIM cells, primary screen, A1 inhibitor project, cell-based, luminescence, HTS | Caspase-Glo 3/7 luminescence, 3 h; percent of clofoctol response, vehicle zero | caspase activation, % (concentration not given with the values) | hit rate 0.066% among 330,000;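 active = over half of replicate activation scores above 10%, or exactly half above 10 with the replicate mean above 10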;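 also: wells of about 30 µL received 50 nL stock; many hits fall short of the cut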
ALR H2O2 inh – inhibitors of human ALR sulfhydryl oxidase, primary screen, biochemical, H2O2 detection, HRP-luminol luminescence, single point. inhibition, % (test concentration not listed). AID 485317, 2010. purified ALR, DTT oxidation. hit rate 3.8% among 290,000;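 active = mean and each replicate at 75% or more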;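 also: stock transfer was 7.5 nL into about 7.5 µL; 0% = neutral wells and 100% = wells with inactivated enzyme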
Beta2AR agonist – beta2AR agonists driving receptor internalization, primary screen, cell-based, FAP fluorogen, flow cytometry | Am2.2-beta2AR cells; reference of the scale not given here | Beta-2 adrenergic receptor (Homo sapiens), P07550 | hit rate 0.43% among 340,000 | response, % (concentration not given with the values) | AID 504454, 2011;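 active = response above a set limit, near 3 SD of response in nonfluorescent compounds, cut at about 42% in these data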;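 also: stock transfer was 100 nL into about 11 µL; a reference agonist was the positive control; negative values mostly stem from fluorescent compounds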
T cruzi repl – inhibitors of intracellular T. cruzi growth, primary screen, luminescence, NIH3T3 host cells | T. cruzi beta-gal in NIH3T3, 90 h | inhibition, % (no concentration beside the values) | hit rate 1.4% among 300,000 | AID 1885, 2009;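 active = mean inhibition across valid replicates above about 55%, limit read from the data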;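 also: signal also drops with host cell toxicity which is not excluded here; 0% = plate median of DMSO wells and 100% = zero luminescence signal; higher percent means less beta-gal luminescence so fewer parasites; stock transfer was 50 nL into about 50 µL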
Beta apoptosis – inhibitors of cytokine-induced beta cell apoptosis, primary screen, luminescence; INS-1E cytokine-induced death, ATP luminescence, 48 h; percent of positive-control rescue, neutral wells zero; AID 435005, 2010; hit rate 0.8% among 300,000; protection from apoptosis, % (no concentration beside the values);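 active = all replicates at 75% or more, or half of them and the mean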;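 also: 0% = cytokine-treated negative control wells and 100% = positive control rescue; higher means more ATP so stronger rescue from cytokine killing; wells of about 40 µL received 100 nL stock; the first replicate is given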
Calb FLC – C. albicans growth inhibition with fluconazole, primary screen, CaCi-2 strain, Alamar Blue fluorescence; growth inhibition, % (no concentration beside the values); hit rate 0.57% among 300,000; C. albicans CaCi-2 (fluconazole-resistant clinical isolate) + fluconazole, 48 h; AID 1979, 2009;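 active = most replicates above 75%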;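 also: all wells also contain fluconazole at 8 µg/ml as a sub-toxic cotreatment; 0% = median of DMSO wells and 100% = median of geldanamycin control wells; wells of about 8 µL received 7.5 nL stock; the first replicate is given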
rRNA inh HTS OD600 – recorded beside rRNA inh HTS, whose call it bears; OD600 change, %; measured here: OD600 growth;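 optical density of the mix in the first replicate; 0 = DMSO median and -100 = no signal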
rRNA inh HTS RFP – recorded beside rRNA inh HTS, whose call it bears; RFP signal change, %; measured here: RFP humanized mutant strains;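 first replicate; 0 = DMSO median and -100 = no signal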
Numbers without * were called inactive; x = not tested or not shown; & = joins results of further samples. Only part of the results is shown; count on the stated rates, not on these rows.

SMILES	rRNA inh HTS	rRNA inh HTS OD600	rRNA inh HTS RFP	LANA-H2A inh	Bfl-1 A1 inh	ALR H2O2 inh	Beta2AR agonist	T cruzi repl	Beta apoptosis	Calb FLC
CC(=O)Nc1ccc(S(=O)(=O)N(C)CC(=O)OCC(=O)NCc2ccco2)cc1	11.7	12.1	0.0	2.4	0.3	-6.9	0.5	-4.4	-1.7	6.2
CCN(CC(=O)Nc1c(F)cccc1F)C(=O)CN1C(=O)c2ccccc2C1=O	1.7	4.4	1.6	-3.4	0.7	-1.8	4.7	-15.9	3.9	3.2
CC(C)c1nc(SCC(=O)Nc2c[nH]c(=O)[nH]c2=O)c2cnn(-c3ccccc3)c2n1	20.3	10.5	1.4	-1.1	0.8	-3.8	6.8	-35.2	5.0	0.4
COc1cccc(NC(=O)c2ccccc2SC)c1	4.4	2.2	-1.6	-1.7	-1.0	-2.7	-7.7	-7.8	-15.8	20.3
Cc1cc(NC(=O)CSc2nccn2C)n(-c2ccccc2)n1	16.6	6.2	1.8	-7.2	0.8	-12.0	15.1	-7.7	-7.3	3.0
Cc1cc(N(C)C)c(C#N)c(N2CCOCC2)n1	x	x	x	-3.6	0.6	0.5	2.1	-0.1	0.0	17.7
CCN1CCN(Cc2ccccc2NC(=O)Nc2ccc(C)cc2)CC1	x	x	x	1.4	-0.1	-14.6	3.7	14.6	-6.7	16.2
CCN(Cc1ccncc1)Cc1cn[nH]c1-c1cc(OC)c(OC)c(OC)c1	16.9	5.3	3.9	3.6	0.0	-22.2	-0.6	19.8	-11.7	-1.3
CC(C)C1CC(CCN2CCCCC2)(c2ccccc2)CCO1 (centres undefined)	10.4	8.2	0.2	-0.5	-1.4	-12.1	2.2	-0.8	7.9	-36.3
O=c1[nH]c(/C=C\c2ccc(O)c(O)c2)nc(O)c1[N+](=O)[O-]	3.7	5.7	-2.0	-0.9	0.3	98.9*	1.6	-7.7	x	4.2
CCOc1cc(NC(=O)C2CC2)c(OCC)cc1NC(=O)c1ccccc1OCC	x	x	x	-0.3	-0.5	-12.5	16.5	16.6	31.4	-0.2
CC(C)(C)c1ccc2c(c1)N(CC(=O)O)C(=O)CO2	x	x	x	-2.1	1.7	-2.7	10.8	7.3	-5.2	1.9
CN1CC(c2ccccc2Cl)C2(COc3ccccc3C2=O)C12C(=O)Nc1ccccc12 (centres undefined)	x	x	x	2.6	0.2	-8.5	3.9	31.7	-7.7	-17.1
CCN(CC(=O)Nc1ccc(OC)c(Cl)c1)CC(=O)NC(C)C	8.8	12.9	1.0	-5.8	0.1	x	1.0	1.8	-7.9	-0.2
O=C(NCc1ccc(OC(F)(F)F)cc1)C1CC(c2ccccc2[N+](=O)[O-])=NO1 (centres undefined)	-24.0	-21.0	7.3	-1.4	-0.3	-2.9	-9.7	-3.1	-2.3	-6.2
CC(=O)c1cccc(CN2CCN(Cc3ccc(C)cc3)C(CCO)C2)c1 (centres undefined)	16.4	5.0	-0.6	-1.3	-0.4	3.1	3.8	47.5	-3.6	0.1
Cc1ccc(NC(=O)COc2ncnc3sccc23)cc1S(=O)(=O)N(C)C	-9.5	-8.9	0.0	5.5	-0.3	-6.1	-0.7	-2.3	-2.5	4.6
COc1ccc(/C=C/C(=O)OCC(=O)Nc2cc3oc4ccccc4c3cc2OC)cc1	1.2	9.8	-2.2	0.1	-1.2	-1.0	x	6.6	0.7	-4.0
C=CCOC(Cn1ccnc1)c1ccc(Cl)cc1Cl (centres undefined)	-32.3	-70.2	-2.1	-3.2	0.9	x	-6.8	x	-2.8	x
COc1ccc(CN2CCNC(=O)C2CC(=O)N(C)CC2CCOCC2)cc1OC (centres undefined)	19.9	26.1	1.7	-2.0	0.2	-4.9	2.3	-4.3	-0.9	-4.1
Cc1ccc2c(c1)N(CCC(=O)NC1CC1)C(=O)C(C)O2 (centres undefined)	x	x	x	0.2	-0.1	-20.6	-0.3	-28.8	2.5	-12.0
CCNC(=S)N(CCc1ccc(OC)c(OC)c1)Cc1cc2cc(OC)ccc2[nH]c1=O	-13.5	-11.4	-0.5	5.7	0.1	-7.5	7.1	0.3	-4.7	-4.9
COc1ccc(-c2nn(C)c(=O)[nH]2)cc1	2.5	-5.5	-3.1	5.4	0.0	x	1.1	-17.7	-6.6	16.8
CC(C)Nc1nc(NC(C)(C)C)nc(Oc2ccc(=O)n(-c3ccccc3)n2)n1	x	x	x	-2.8	-0.2	-4.2	-11.9	18.9	-9.1	2.5
Cc1ccc(-n2nc(-c3ccco3)cc2C(=O)O)c(C)c1	23.6	6.5	11.8	x	x	x	14.3	-4.5	x	-10.2

Sorted by molar mass (ascending): part of the list above
SMILES	rRNA inh HTS	rRNA inh HTS OD600	rRNA inh HTS RFP	LANA-H2A inh	Bfl-1 A1 inh	ALR H2O2 inh	Beta2AR agonist	T cruzi repl	Beta apoptosis	Calb FLC
COc1ccc(-c2nn(C)c(=O)[nH]2)cc1	2.5	-5.5	-3.1	5.4	0.0	x	1.1	-17.7	-6.6	16.8
CC(C)C1CC(CCN2CCCCC2)(c2ccccc2)CCO1 (centres undefined)	10.4	8.2	0.2	-0.5	-1.4	-12.1	2.2	-0.8	7.9	-36.3
Cc1cc(NC(=O)CSc2nccn2C)n(-c2ccccc2)n1	16.6	6.2	1.8	-7.2	0.8	-12.0	15.1	-7.7	-7.3	3.0
CCN(CC(=O)Nc1ccc(OC)c(Cl)c1)CC(=O)NC(C)C	8.8	12.9	1.0	-5.8	0.1	x	1.0	1.8	-7.9	-0.2
CN1CC(c2ccccc2Cl)C2(COc3ccccc3C2=O)C12C(=O)Nc1ccccc12 (centres undefined)	x	x	x	2.6	0.2	-8.5	3.9	31.7	-7.7	-17.1

New compounds follow:
SMILES	rRNA inh HTS	rRNA inh HTS OD600	rRNA inh HTS RFP	LANA-H2A inh	Bfl-1 A1 inh	ALR H2O2 inh	Beta2AR agonist	T cruzi repl	Beta apoptosis	Calb FLC
CCC(C(=O)Nc1ccc([N+](=O)[O-])cn1)c1ccccc1 (centres undefined)	-2.6	-18.8	-8.4	-2.3	1.4	x	3.7	15.8	7.8	-6.8
Cc1ccc(C(=O)N2N=C(c3ccc(Br)cc3)CC2c2ccccc2O)cc1 (centres undefined)	-1.0	-6.9	-3.6	-0.8	0.3	x	1.9	55.1*	78.1*	-3.2
CCC1CCCCN1C(=O)c1ccc2nc(Cc3ccc(OC)cc3)oc2c1 (centres undefined)	-8.5	-10.9	1.8	-6.5	-1.1	0.6	-2.2	-16.5	-7.5	-0.4
COC(=O)c1ccc(C23CC4(C2)[C@H](CN(C)[C@@H]4c2ccccc2)C3c2ccc(Cl)nc2)cc1 (some centres undefined)	6.0	5.8	5.2	-2.5	0.7	x	4.1	39.1	10.5	-31.3
COc1ccc(CN(C)CCc2ccccn2)cc1OC	x	x	x	1.4&-0.3	-0.1	0.7	-1.8	x	-3.0	-2.0
COc1ccc(CCNC(=O)c2ccc(SC)cc2OC)cc1	-27.3	-22.6	-0.2	1.8	-0.2	-4.5	-1.8	26.0	-7.3	-4.9
CN(C)c1nc(Oc2ccc(OCCOc3ccccc3)nn2)nc(N(C)C)n1	0.2	-5.2	0.7	4.5	-0.1	-3.6	-5.4	9.5	-1.6	-13.3
Cc1ccc(NC(=O)C(CC(C)C)NC(N)=O)cc1 (centres undefined)	6.4	14.5	3.2	-2.2	0.8	-18.0	-3.5	-1.2	-2.9	8.6
N=C1c2ccccc2CN1c1ccc(S(=O)(=O)N2CCCCC2)cc1	-4.8	7.2	5.9	-1.2	0.8	3.6	-1.2	16.0	-0.7	6.4
CN(C)c1ccc(NC(=O)c2cccc(N3C(=O)CCC3=O)c2)cc1	x	x	x	0.5	0.7	99.0*	-2.0	-9.7	6.2	-15.0
COc1cccc(NC(=O)c2sc(Cl)nc2C)c1	10.5	8.8	-1.5	-2.5	-3.1	x	1.7	-1.6	-4.7	-5.8
O=C(CCCCC(=O)NC1CCCC1)NC1CCCC1	x	x	x	-3.4	0.7	-30.2	1.2	-0.9	-2.2	-2.6
O=C(Nc1ccc(Cl)cc1)N1CCN(c2ccccc2)CC1	x	x	x	3.2	0.1	28.1	8.8	-8.4	5.5	2.0
Cc1ccccc1OCC(=O)NCC(=O)N/N=C/c1cccc([N+](=O)[O-])c1	20.3	21.8	-1.8	2.2	0.3	-4.4	x	-1.0	1.2	-7.6
CCc1nc2sccc2c(=O)n1N	8.7	12.4	0.5	-2.5	1.2	-10.1	-4.7	6.3	-0.5	-8.4
COc1ccc(S(=O)(=O)N2CCOCC2)cc1C(=O)N(C)Cc1ccco1	1.6	10.8	-0.3	4.5	-0.7	-5.3	-3.5	x	2.0	x
CSc1nsc(SCCN2C(=O)c3ccccc3C2=O)n1	x	x	x	-0.2	0.7	-7.9	-5.1	-7.7	0.3	5.0
Nc1nonc1/C(=N/O)N1CCN(CCO)CC1	x	x	x	1.0	-0.9	0.1	5.6	-13.5	-6.8	-0.2
O=C(OCc1ccccc1)Oc1cncc(C(=O)O)c1	0.6	-3.3	-0.4	0.9	0.1	97.9*	-10.8	-8.8	-8.4	-1.3
CC1O[C@@H](O[C@H](C)CC/C=C/C(=O)O)C(O)C[C@H]1O (some centres undefined)	9.1	16.3	-1.8	4.6	-0.2	3.0	1.5	-16.4	-6.6	-1.5
COc1ccc(N2CCN(CCCNC(=O)C3CCN(S(=O)(=O)N4CCOCC4)CC3)CC2)cc1	12.6	12.0	-0.9	-4.9	-0.6	52.1	-8.7	-4.2	-0.4	-2.5
O=S(=O)(c1ccccc1)N1CCC(n2cnc3ccccc32)CC1	-2.2	-13.9	1.5	-1.3	-5.1	-9.0	-1.9	10.6	x	0.3
O=[N+]([O-])c1ccc(C(O)CN=Cc2ccc(O)cc2O)cc1 (centres undefined)	10.5	0.1	-0.8	3.7	-0.7	-6.6	5.2	-50.5	4.1	-27.1
CC(=O)Nc1ccc(S(=O)(=O)Nc2nc(-c3ccc(C(C)(C)C)cc3)cs2)cc1	x	x	x	-3.1	0.7	14.9	4.5	-18.1	x	12.9
CCC1CCCCN1C(=O)Nc1cc(Cl)ccc1OC (centres undefined)	-2.5	3.2	-2.5	1.2	1.3	0.3	-2.0	10.5	-6.0	19.4
CC(Oc1ccc(Br)cc1)C(=O)NCC(c1cccs1)N1CCOCC1 (centres undefined)	-4.1	-10.5	-0.2	5.0	1.0	-3.7	-0.2	4.0	-9.6	-4.3
CN1C(=O)c2cccc3c(N)ccc(c23)C1=O	30.1	-1.2	-2.3	25.3*	0.3	-15.1	-10.5	4.3	2.7	-4.1
